TRPV1 potentiator = HTS Assay for Compounds that Act as Potentiators of the Vanilloid Receptor 1; TRPV1-expressing cells, Fluo-8 calcium influx, capsaicin EC20 potentiation; host cell line not named in the record; control for the full effect not named in the record; potentiation, % at 8.33 µM; Transient receptor potential cation channel subfamily V member 1 (Homo sapiens), Q8NER1; AID 540277, 2011; hit rate 0.02% among 320,000; active means potentiation above 80%; inconclusive means 30% to 80%; inactive means below 30%; note: 0% is about no effect
Target sequence (Q8NER1 whole entry, looked up): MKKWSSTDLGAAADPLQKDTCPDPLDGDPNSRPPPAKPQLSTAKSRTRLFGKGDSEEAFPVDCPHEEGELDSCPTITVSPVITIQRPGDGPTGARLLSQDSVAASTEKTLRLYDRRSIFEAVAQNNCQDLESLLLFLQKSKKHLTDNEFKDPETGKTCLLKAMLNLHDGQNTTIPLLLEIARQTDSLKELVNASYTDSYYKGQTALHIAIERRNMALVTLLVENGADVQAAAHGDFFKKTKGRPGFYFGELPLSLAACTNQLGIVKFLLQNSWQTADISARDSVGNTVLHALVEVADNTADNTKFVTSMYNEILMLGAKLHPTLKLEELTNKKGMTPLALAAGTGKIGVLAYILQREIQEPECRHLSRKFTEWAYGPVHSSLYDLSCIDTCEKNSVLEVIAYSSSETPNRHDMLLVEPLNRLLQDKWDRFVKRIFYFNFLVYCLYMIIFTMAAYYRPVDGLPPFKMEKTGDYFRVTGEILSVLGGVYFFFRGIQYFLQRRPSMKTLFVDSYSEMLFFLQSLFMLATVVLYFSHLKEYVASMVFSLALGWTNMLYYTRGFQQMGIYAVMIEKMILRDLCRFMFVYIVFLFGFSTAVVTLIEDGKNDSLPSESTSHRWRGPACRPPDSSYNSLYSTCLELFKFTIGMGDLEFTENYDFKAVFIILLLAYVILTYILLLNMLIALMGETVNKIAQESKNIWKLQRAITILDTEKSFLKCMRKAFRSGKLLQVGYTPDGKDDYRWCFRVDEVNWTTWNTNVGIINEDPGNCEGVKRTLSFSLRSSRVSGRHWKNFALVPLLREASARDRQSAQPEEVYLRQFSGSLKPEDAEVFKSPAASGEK
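Fluo-8 calcium influx in TRPV1-expressing cells, kinetic read (ex 480/em 520 nm). Compound added and read 3 min for agonist activity, followed by capsaicin at EC20 final and 2 min further read for enhancement.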
ClpP mod = qHTS Assay for Activators of ClpP; ATP-dependent Clp protease proteolytic subunit (Bacillus subtilis (strain 168)), P80244; hit rate 1.9% among 340,000; AID 651965, 2013; purified B. subtilis ClpP, FRET peptide cleavage, 20 min; Potency, µM (highest dose often 57.5 µM), for the others: at the top dose activity change, negative = active; active = well fitted falling curve with a large enough effect; inconclusive = small, poorly fitted or top-dose-only effect; inactive = no such curve, though single readings can be large or run the other way; note: potency is the fitted concentration of half-maximal effect; the source files actives as falling curves though it sought activators and does not explain the sign; nearly all actives have a fitted effect of over 65% in size; many hits overshoot -100%
Target sequence (P80244 whole entry, looked up): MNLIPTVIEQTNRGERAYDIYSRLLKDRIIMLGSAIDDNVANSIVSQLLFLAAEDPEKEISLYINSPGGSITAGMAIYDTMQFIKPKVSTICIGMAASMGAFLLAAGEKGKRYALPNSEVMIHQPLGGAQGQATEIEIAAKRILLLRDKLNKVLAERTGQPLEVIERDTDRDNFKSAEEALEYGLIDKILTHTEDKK
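ClpP 10 microg/mL final, pH 8 Tris/KCl buffer with BSA, glycerol, Tween-20; compound pinned in; FRET-FV substrate; RT 20 min; Ex320/Em430; ΔFRET vs ADEP 5.8 microM, DMSO, no enzyme.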
Sfp inh = qHTS Assay for Inhibitors of Bacillus subtilis Sfp phosphopantetheinyl transferase (PPTase) | AID 1490, 2009 | hit rate 3.5% among 310,000 | Potency, µM, without a hit: max response, negative = inhibition, usual class: inhibitors | Biochemical Sfp PPTase activity, qHTS; active = well fitted inhibition curve with a large enough effect; inconclusive = small, poorly fitted or top-dose-only effect, or another doubt; inactive = no such curve, though single readings can be large or run the other way;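 note: the enzyme is Sfp with the accession as filed and its product quenches rhodamine fluorescence; potency is the fitted concentration of half-maximal effect; 0% = enzyme reaction without inhibitor and -100% = no enzyme wells; top concentration of the series not given in the record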
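After 15 min at room temperature with compound, 15 nM Sfp received 5 uM rhodamine-CoA plus 12.5 uM BHQ-2-ybbR (50 mM Hepes pH 7.6, 10 mM MgCl2). Rate came from the fluorescence difference over 30 min, ex 525/em 598 nm.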
gsp agonist = qHTS for Agonist of gsp, the Etiologic Mutation Responsible for Fibrous Dysplasia/McCune-Albright Syndrome: qHTS | gsp mutant cells, cAMP HTRF, 30 min; control for the full effect not named in the record | Potency, µM (top dose mostly 76.9 µM), for inactives: top-dose activation (cAMP increase), actives largely listed as activators | AID 624287, 2012 | hit rate 0.13% among 340,000; active = well fitted activation curve with a large enough effect; inconclusive = small, poorly fitted or top-dose-only effect, or another doubt; inactive = no such curve, though single readings can be large or run the other way; cell line not stated here;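 note: phosphodiesterase inhibitor Ro 20-1724 added with compounds to block cAMP breakdown; potency is the fitted concentration of half-maximal effect; nearly all actives have a fitted effect of over 60% in size; about a fifth of the inactives were tested at one dose only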
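Cells in DMEM/10% FBS with G418 were pretreated with compounds in DMSO plus […] (300 uM stock) for 30 min at 37C. cAMP was measured by HTRF (cAMP-d2 plus anti-cAMP antibody-K) after 30 min at room temperature.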
Menin MLL FP FL = qHTS Assay for Inhibitors Targeting the Menin-MLL Interaction in MLL Related Leukemias: Competition With Fluorescein Labeled MLL-derived Peptide | AID 1766, 2009 | 290,000 tested, under 10 active | FP activity change, % at 61.4 µM | Fluorescence polarization, fluorescein-MLL peptide displacement from menin; inconclusive = falling polarisation curve, or a change in total fluorescence; inactive = total fluorescence flat and polarisation flat or rising; no compound was filed as active; the % refers to the polarisation; negative = inhibition;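 note: % of control where 0% means no effect; inhibitors lower the polarisation; unlabelled MLL peptide was the positive control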
TRPML1 blocker = qHTS for Inhibitors of the Human Mucolipin Transient Receptor Potential 1 (TRPML1) | Mucolipin-1 (Homo sapiens), Q9GZU1 | TRPML1-inducible cells, Ca2+ dye fluorescence, FDSS; active compounds read low; inhibition of EC80 agonist-evoked calcium signal | activity change, negative = inhibition, % (no concentration beside the values) | hit rate 0.02% among 390,000 | AID 624415, 2012; in the data active means activity change below about -50%; inconclusive means about -30% to -50%; inactive means above about -30%;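 note: stimulus is agonist 54-4 at its EC80 concentration; % is set by controls: 0 for no effect and ±100 for the full control effect; compound concentration not given in the record; the text of the record puts the active cut at -80%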
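TRPML1-DL cells, Tet-induced overnight (~16 h, 37 °C) at 1,500 cells/well, were loaded with Ca8 no-wash dye plus quencher for 45-90 min at room temperature. Compounds were pinned during FDSS kinetic reading; agonist 54-4 at EC80 (4 uM final) then added.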
gsp antagonist = qHTS for Antagonists of gsp, the Etiologic Mutation Responsible for Fibrous Dysplasia/McCune-Albright Syndrome: qHTS; hit rate 0.4% among 340,000; gsp-mutant cells, cAMP HTRF, 30 min; control for the full effect not named in the record; Potency, µM (top dose mostly 76.9 µM), for the others: at the top dose activity change, negative = inhibition, hits mostly inhibitors; active = falling curve of any shape with a large fitted effect; inconclusive = falling curve, mostly with a smaller effect; inactive = flat or rising curve; cell line not stated here;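 note: intracellular cAMP measured with PDE inhibitor Ro 20-1724 present during compound exposure; potency is the fitted concentration of half-maximal effect; % is set by controls: 0 for no effect and ±100 for the full control effect; nearly all actives have a fitted effect of over 65% in size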
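Cells in G418 medium, seeded 16-24 h, 37C; buffer exchange to DPBS + 1 mM CaCl2, 0.5 mM MgCl2, 0.05% BSA; cpds in DMSO + […] (300 uM stock), 30 min 37C; HTRF cAMP detection.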
* = called active by the depositor; u = inconclusive; x = not tested or not shown; & = joins results of further samples; [ ] = another dose, or the depositor's remark. This is a subset; rates above refer to the full screens.

SMILES | TRPV1 potentiator | ClpP mod | Sfp inh | gsp agonist | Menin MLL FP FL | TRPML1 blocker | gsp antagonist
N#CC(C#N)=Cc1ccc(O)c(O)c1 | -11 | -0.5%&-3.9% | 40µM* | x | u | -3 | u
O=c1[nH]c(=O)n(-c2ccc(Cl)cc2)c(O)c1C=NCCN1CCCCC1 | 5 | x | 22% | -1%[15.4 µM] | 19 | 0 | 10%
CC(C(=O)Nc1ccc(Cl)cc1Cl)N1CC=C(c2ccccc2)CC1 (stereo not given) | -2 | 28µM* | 56µM* | 3% | 13 | 20 | -1%
O=C1NC(=S)NC(=O)C1=Cc1ccc(OCc2ccccc2)cc1 | x | -6.7% | x | 6%[15.4 µM] | x | -1 | 1%
CCOc1ccccc1OCC(=O)Nc1ccc(Cl)cc1C(=O)c1ccccc1 | -3 | 1.6% | 0% | 6% | -0.9 | 10 | -32%
CCOP(=O)(OCC)C(O)c1ccc(N(C)C)cc1 (stereo not given) | 11 | x | 9% | -31%[15.4 µM] | 1.7 | 5 | -5%
Cc1ccc(-n2c(O)c(C=NC3CCCCC3N)c(=O)[nH]c2=O)cc1C (stereo not given) | -9 | -1.5% | 2% | u | 1.0 | 1 | -1%
COC(=O)C1=C(c2ccc(Cl)c(C(F)(F)F)c2)C[C@@H]2CC[C@H]1N2C(=O)NCc1cc(C)oc1C(F)(F)F | 1 | -2.7% | x | -7% | x | 42 | -12%
Cn1cc(C(=O)OCC(=O)Nc2ccccc2)c2ccccc21 | 1 | -2.2% | x | -3% | x | 1 | -23%
O=C(Cc1ccccc1)OC(COCc1ccccc1)CN1CCOCC1 (stereo not given) | 8 | 0.7% | 15% | -1% | 7.6 | 6 | 4%
COC(=O)C1=C(c2cccc(Cl)c2)C[C@@H]2CC[C@H]1N2C(=O)NCC1CC1 | 11 | -3.5% | x | -5% | x | -11 | -6%
N#CC1(c2ccccc2)CCN(C2CC(=O)N(c3cccc(F)c3)C2=O)CC1 (stereo not given) | 10 | x | 12% | -1%[15.4 µM] | 3.6 | -5 | 9%
C=CCN1C[C@@H](C)N(C(c2ccc(C(=O)N(CC)CC)cc2)c2cccc(OC)c2)C[C@@H]1C (stereo not given in full) | -12 | 0.3% | x | x | x | -3 | 6%
COc1ccc(OC)c(CN2CCN(C(=O)Cc3ccccc3)CC2)c1 | -5 | 1.7% | -40% | -7% | -0.8 | 3 | 5%
S=C1NC2(CCCCC2)NC12CCCCC2 | -5 | 0.6% | 15% | 28% | 0.6 | 11 | -1%
O=c1c2ccccc2nc(-c2ccccc2)n1-c1ccccc1 | -8 | 0.8% | 22% | 31% | 1.6 | 10 | -9%
ClCCN(CCCl)c1ccc(C=NNc2ncccn2)cc1 | x | x | x | 0% | x | -11 | -2%
C[C@@H](NC(=O)C[C@@H]1C[C@@H]2c3cc(NS(=O)(=O)c4ccc(F)cc4)ccc3O[C@@H]2[C@@H](CO)O1)c1ccccc1 | x | 1.3% | x | -99%[inhibitor] | x | 6 | x
CC[C@@]1(O)C(=O)OCc2c1cc1n(c2=O)Cc2cc3c(N)cccc3nc2-1 | u | 4.6% | -3% | x | -0.9 | -18 | u
CCn1ccnc1CN1CCCC(C(=O)c2cc(C)c(OC)c(C)c2)C1 (stereo not given) | 12 | 0.1% | 5% | -25% | 0.6 | 11 | 0%
CC[C@@H](O)C[C@H]1CCC[C@@]2(C[C@@H]3OC(=O)/C=C/[C@@](C)(O)[C@@H](O)[C@H](C)[C@@H](O)[C@H](OC4CCC(N(C)C)C(C)O4)[C@@H](O)[C@](C)(O)CCCCC/C=C/[C@@H]4CC(C)(C)O[C@@]4(O)C[C@H](O2)[C@H]3C)O1 (stereo not given in full) | x | 0.7% | x | u | x | -10 | -11%
CC(=O)Nc1ccccc1C(=O)OCc1ccc(C(=O)c2ccccc2)cc1 | 6 | -3.8% | -12% | -7% | -1.7 | -10 | 1.8µM*
O=C(O)c1ccc(N=Cc2c(O)n(Cc3ccc(F)cc3)c(=O)[nH]c2=O)cc1 | 0 | -16% | -2% | 0% | -0.1 | 10 | 3%
CCN(CC)S(=O)(=O)N1CCC(C(=O)N2CCC3(CC2)OCCO3)CC1 | -1 | -1.1% | 22% | u | 6.6 | -1 | 7%
Cc1ccc(/C(CSc2nccn2-c2ncc(C(F)(F)F)cc2Cl)=N\O)cc1 | 2 | 0.7% | 0% | -1% | -0.2 | 4 | -7%
O=c1[nH]c(=O)n(Cc2ccccc2)c(O)c1/C=C1\C=Nc2ccccc21 | 10 | 3.0% | u | 6% | 12 | 5 | 10%
N#Cc1c(/N=C/C2C(=O)NC(=S)NC2=O)sc2c1CCCC2 | -1 | x | 22µM* | 15% | u | 6 | 4%
O=c1[nH]c(O)c(/C=C2\C=NN=C2c2ccccc2)c(=O)[nH]1 | -6 | -3.4% | 50µM* | -3% | 5.7 | 2 | -5%
CCCC[N+]1(C)[C@@H]2CC(OC(=O)[C@H](CO)c3ccccc3)C[C@H]1[C@@H]1O[C@@H]12 (stereo not given in full) | 9 | 2.2% | 19% | x | 0.1 | 15 | -2%
CCOC(=O)C1(c2ccccc2)CCN(CCC(=O)Nc2cccc(Br)c2)CC1 | -9 | x | x | 2%[15.4 µM] | x | -8 | -11%
COc1cc(CN2CCCC(C(=O)c3sccc3C)C2)cc(Cl)c1O (stereo not given) | 3 | x | -9% | 8%[15.4 µM] | -1.3 | 11 | 0%
CC1([N+](=O)[O-])COP(=O)(Nc2ccc(F)cc2)OC1 (stereo not given) | x | u | x | -20% | x | 4 | 0%
CCS(=O)(=O)N1N=C(c2cccc(NS(C)(=O)=O)c2)CC1c1ccccc1 (stereo not given) | -13 | x | -4% | -13% | u | -8 | -11%
COc1ccc(-c2cc(=NCCCCCC(=O)O)c3cc(C)ccc3o2)cc1 | u | x | 6% | u | 1.0 | 5&-4 | -9%&5%
COc1ccc(-c2n(-c3ccccn3)c3ccccc3[n+]2-c2ccccn2)cc1 | -7 | -21% | 14% | -3% | -25 | 17 | -1%
Cc1cc(Br)ccc1N1C(=O)CC(=O)NC1=O | -15 | 0.3% | -19% | 3% | u | 0 | 4%
CC1=NN(c2ccccc2)C(=O)C1=C(C)C | 1 | -0.3% | 7% | -7% | u | 12 | -17%
Nc1ccc2c(c1)oc1ccccc12 | -6 | 13µM* | 3% | -37% | 2.9 | -8 | 4%
Oc1ccc(Cl)c(Cl)c1 | 6 | 1.4% | x | x | x | 8 | 3%
O=[N+]([O-])c1ccccc1CNCCc1ccc(F)cc1 | -3 | -0.6% | -17% | -4% | 0.1 | 3 | 3%
O=C(CN1CC(c2ccccc2)CC1=O)NCc1ccc(F)cc1 (stereo not given) | -24 | -4.6% | 7% | -50%[inhibitor] | 5.6 | 2 | 9%
COc1cc(O)cc2c1C(=O)O[C@@H](C)CCCC(=O)CCCCC2 | 2 | 0.4% | 6% | -3% | -7.7 | 3 | -4%
COC(=O)C1=C(c2ccc(Cl)c(C(F)(F)F)c2)C[C@@H]2CC[C@H]1N2C | -5 | -0.7% | x | -42% | x | 52 | 7%
CCCCCCC[n+]1ccc(-c2cc[n+](CCCCCCC)cc2)cc1 | 0 | -2.0%&3.3% | -17%&16% | u | u | -4 | 5%
Cc1ccc(NC(=O)c2ccc(Cl)c(S(=O)(=O)NCc3ccco3)c2)c(O)c1 | x | 0.8% | x | -61%[inhibitor] | x | 11 | -16%
C=CCN1CC[C@]23c4c5ccc(O)c4OC2C(=O)CC[C@@]3(O)C1C5 (stereo not given in full) | 10 | -2.8% | 11% | x | 5.5 | 48 | 9%
CCOc1ccc2nc(N=Nc3c(O)[nH]c(=O)[nH]c3=O)sc2c1 | 2 | -0.3% | 10% | 22% | 2.3 | x | -6%
O=S(=O)(c1cccc2ccccc12)N1Cc2ccccc2-n2nncc2C1 | x | -3.5% | x | -30%[inhibitor] | x | 8 | x
Cc1cc(Oc2ccc(C(F)(F)F)cc2[N+](=O)[O-])c2c3c(c(=O)oc2c1)CCCC3 | -1 | -6.6% | 21% | -10%[15.4 µM] | 4.9 | -17 | 7%
COc1cc(CC2(CCc3ccncc3)C(=O)NC(=O)NC2=O)cc(OC)c1OC | -4 | x | 8% | 4% | -0.7 | -11 | 6%

New compounds follow:
SMILES | TRPV1 potentiator | ClpP mod | Sfp inh | gsp agonist | Menin MLL FP FL | TRPML1 blocker | gsp antagonist
CC1C=CCCC12C(=O)NC(=O)NC2=O (stereo not given) | x | 1.7% | x | 9% | x | 4 | 12%
COc1ccc(-n2nc(C(=O)NCC(=O)N3CCC4(CC3)OCCO4)c3ccccc3c2=O)c(OC)c1 | -9 | x | 21% | u | -15 | 4 | 14%
CC(=O)N1N=C2C3CCN(CC3)C2C1c1ccc(C)cc1 (stereo not given) | 0 | -0.8% | 12% | -34%[inhibitor] | -3.0 | 12 | 0%
CN1C(=O)c2ccccc2NC(=O)C1Cc1ccccc1 (stereo not given) | -13 | -3.1% | -11% | 21% | 1.6 | 3 | 7%
CCOc1ccccc1CN1CCCC(C(=O)c2cc(F)ccc2F)C1 (stereo not given) | -8 | x | 14% | -39%[inhibitor] | 3.4 | -3 | 6%
CN1CCN(c2c(F)cc([N+](=O)[O-])c(N)c2Br)CC1 | -35 | -4.3% | -6% | 26%[15.4 µM] | 0.9 | 25 | -19%
